Screening results (PubChem BioAssay)
LANA-H2B inh: blocks KSHV LANA binding to histone H2A/H2B; Q9QR71; cell-free LANA-H2A/H2B peptide, fluorescence polarization; inhibition, % (no concentration beside the values); 320,000 tested, 0.6% active; in the data active means inhibition mostly above about 10%, no sharp cut-off; inactive means mostly below about 6.7%;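 further: stock transfer was 7.5 nL into about 10 µL; 0% = median of vehicle wells and 100% = median of positive control wells; one replicate is shown; the record names a cut of 25% in any replicate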
Target sequence (Q9QR71 whole entry, looked up): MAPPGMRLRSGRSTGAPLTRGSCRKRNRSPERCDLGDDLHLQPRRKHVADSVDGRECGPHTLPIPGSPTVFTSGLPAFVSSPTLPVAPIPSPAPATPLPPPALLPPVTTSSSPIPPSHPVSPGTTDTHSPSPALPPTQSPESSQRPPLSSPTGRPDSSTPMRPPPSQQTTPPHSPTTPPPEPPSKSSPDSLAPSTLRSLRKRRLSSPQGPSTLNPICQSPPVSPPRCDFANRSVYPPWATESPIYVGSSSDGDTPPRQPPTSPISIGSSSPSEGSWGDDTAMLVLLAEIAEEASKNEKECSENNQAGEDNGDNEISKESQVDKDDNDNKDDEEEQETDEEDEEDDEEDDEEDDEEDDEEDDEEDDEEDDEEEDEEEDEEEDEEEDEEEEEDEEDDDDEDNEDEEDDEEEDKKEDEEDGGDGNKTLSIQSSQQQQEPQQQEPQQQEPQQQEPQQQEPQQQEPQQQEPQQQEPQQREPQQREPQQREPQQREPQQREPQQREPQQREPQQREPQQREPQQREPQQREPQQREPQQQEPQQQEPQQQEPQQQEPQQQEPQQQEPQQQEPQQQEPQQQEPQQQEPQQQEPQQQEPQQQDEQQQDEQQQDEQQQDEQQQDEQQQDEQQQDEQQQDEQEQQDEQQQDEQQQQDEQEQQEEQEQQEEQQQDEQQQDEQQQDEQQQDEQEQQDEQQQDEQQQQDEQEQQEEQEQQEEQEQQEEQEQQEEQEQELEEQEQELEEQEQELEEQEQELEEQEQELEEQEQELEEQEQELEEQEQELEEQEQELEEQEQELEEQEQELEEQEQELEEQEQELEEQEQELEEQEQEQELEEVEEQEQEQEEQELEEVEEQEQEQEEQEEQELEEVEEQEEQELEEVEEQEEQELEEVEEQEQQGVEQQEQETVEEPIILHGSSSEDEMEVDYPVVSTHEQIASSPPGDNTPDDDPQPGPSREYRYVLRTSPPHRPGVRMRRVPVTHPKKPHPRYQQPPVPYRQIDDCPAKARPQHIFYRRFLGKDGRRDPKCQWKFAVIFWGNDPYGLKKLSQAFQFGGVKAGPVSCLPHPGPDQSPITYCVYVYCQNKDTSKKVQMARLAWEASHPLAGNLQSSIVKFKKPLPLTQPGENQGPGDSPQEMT
T cruzi repl: T. cruzi replication inhibition. T. cruzi beta-gal in NIH3T3, luminescence, 90 h. inhibition, % (concentration not given with the values). 300,000 tested, 1.4% active;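 active means mean inhibition across valid replicates above about 55%, limit read from the data; inconclusive means mean below that limit but half or more replicates reach it; inactive means mean below it, under half of replicates reach it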;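 further: signal also drops with host cell toxicity which is not excluded here; 0% = plate median of DMSO wells and 100% = zero luminescence signal; higher percent means less beta-gal luminescence so fewer parasites; stock transfer was 50 nL into about 50 µL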
Bfl-1 A1 inh: inhibitors of the anti-apoptotic protein A1, read as caspase activation; MEF A1-2A-BIM cells, Caspase-Glo 3/7 luminescence, 3 h; percent of clofoctol response, vehicle zero; caspase activation, % (concentration not given with the values); 330,000 tested, 0.066% active; AID 2462;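 active means over half of replicate activation scores above 10%, or exactly half above 10 with the replicate mean above 10; inconclusive means replicate mean below 10 yet half the replicates above 10; inactive means over half of replicates below 10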;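 further: wells of about 30 µL received 50 nL stock; many hits fall short of the cut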
Calb FLC: affects C. albicans growth with fluconazole; C. albicans CaCi-2 (fluconazole-resistant clinical isolate) + fluconazole, Alamar Blue growth, 48 h; growth inhibition, % (test concentration not listed); 300,000 tested, 0.57% active;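 active means most replicates above 75%; inconclusive means exactly half above 75%; inactive means most below 75%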;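 further: all wells also contain fluconazole at 8 µg/ml as a sub-toxic cotreatment; 0% = median of DMSO wells and 100% = median of geldanamycin control wells; wells of about 8 µL received 7.5 nL stock; the first replicate is given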
* hit, by the source's call; ? = inconclusive; / = not tested or not shown. This is a subset; the hit share may differ from the screen's.

Start of the listing, in advance, seven compounds:
SMILES	LANA-H2B inh	T cruzi repl	Bfl-1 A1 inh	Calb FLC
CO[C@H]1C=CO[C@@]2(C)Oc3c(C)c(O)c4c(O)c(c5c(nc6cc(C)ccn65)c4c3C2=O)NC(=O)C(C)=CC=C[C@H](C)[C@H](O)[C@@H](C)[C@@H](O)[C@@H](C)[C@H](OC(C)=O)[C@@H]1C	/	-1	/	/
O=C(O)CCNC(=O)c1ccc(N=Nc2ccc(O)c(C(=O)O)c2)cc1	/	11	/	/
CCC(=O)O[C@@H]1CC(=O)O[C@H](C)CC=CC=C[C@@H](O)[C@H](C)C[C@H](CC=O)[C@H](O[C@H]2O[C@H](C)[C@@H](O[C@H]3C[C@@](C)(O)[C@@H](OC(=O)CC)[C@H](C)O3)[C@H](N(C)C)[C@H]2O)[C@H]1OC	/	-1	/	/
Cc1ccc2[nH]c(=O)c(CN(Cc3ccco3)C(=O)c3cccs3)cc2c1	/	/	/	0
CC(=O)Nc1nc2c(ncn2COCCOC(C)=O)c(=O)[nH]1	/	/	/	5
CCCN1C(=O)/C(=C\C=C2/Sc3ccccc3N2CC)SC1=S	/	/	/	-15
COc1ccc(S(=O)(=O)N2CCN(C(=O)COc3ccc4c(C)cc(=O)oc4c3)CC2)cc1	-10	/	/	/

All compounds of this part, repeating the preview:
SMILES	LANA-H2B inh	T cruzi repl	Bfl-1 A1 inh	Calb FLC
CO[C@H]1C=CO[C@@]2(C)Oc3c(C)c(O)c4c(O)c(c5c(nc6cc(C)ccn65)c4c3C2=O)NC(=O)C(C)=CC=C[C@H](C)[C@H](O)[C@@H](C)[C@@H](O)[C@@H](C)[C@H](OC(C)=O)[C@@H]1C	/	-1	/	/
O=C(O)CCNC(=O)c1ccc(N=Nc2ccc(O)c(C(=O)O)c2)cc1	/	11	/	/
CCC(=O)O[C@@H]1CC(=O)O[C@H](C)CC=CC=C[C@@H](O)[C@H](C)C[C@H](CC=O)[C@H](O[C@H]2O[C@H](C)[C@@H](O[C@H]3C[C@@](C)(O)[C@@H](OC(=O)CC)[C@H](C)O3)[C@H](N(C)C)[C@H]2O)[C@H]1OC	/	-1	/	/
Cc1ccc2[nH]c(=O)c(CN(Cc3ccco3)C(=O)c3cccs3)cc2c1	/	/	/	0
CC(=O)Nc1nc2c(ncn2COCCOC(C)=O)c(=O)[nH]1	/	/	/	5
CCCN1C(=O)/C(=C\C=C2/Sc3ccccc3N2CC)SC1=S	/	/	/	-15
COc1ccc(S(=O)(=O)N2CCN(C(=O)COc3ccc4c(C)cc(=O)oc4c3)CC2)cc1	-10	/	/	/
COC(=O)c1[nH]c2ccc(C)cc2c1NC(=O)CCN1CCN(C2CCCCC2)CC1	/	21	/	-7
Cc1nn(-c2ccc3nnc(Br)n3n2)c(C)c1Br	/	5	/	14
CC(C)C(=O)N1CCC2(CC1)Oc1ccc(F)cc1C(=O)C21CC(c2cccnc2)=NO1 (stereo unspecified)	/	-10	/	1
Cc1cnc(NC(=O)c2c(O)c3cccc4c3n(c2=O)CCC4)s1	/	7	/	-13
O=C(Cc1ccccc1)N[C@@H](Cc1ccc(O)cc1)C(=O)O	/	-21	/	-3
COc1ccc(N2CCn3c2nc2c3c(=O)n(CCc3ccccc3)c(=O)n2C)c(OC)c1	/	34	/	2
Cc1cc(NCCN2CCCCC2)n2c(nc3ccccc32)c1C#N	/	-8	/	4
C#CCOCCOCCOCCNc1nc(N2CCN(C(=O)[C@H]([C@@H](C)CC)n3cc([C@@H](N)CC(C)C)nn3)CC2)nc(N2CCN(C(=O)[C@H](Cc3cc4ccccc4[nH]3)n3cc([C@@H](N)CC(C)C)nn3)CC2)n1	/	5	/	15
COc1ccccc1NC(=O)NCc1ccc2c(c1)OCO2	/	0	/	5
CCC(=Nc1ccccc1)C1=C(O)CC(C)(C)CC1=O	/	-7	/	-3
O=C(c1ccc2c(c1)OCO2)n1nnc2ccccc21	/	-19	/	3
CCCCn1c(SCC(N)=O)nnc1-c1cc(OC)c(OC)c(OC)c1	/	-7	/	-4
CC1=CC(C)(C)N2C(=O)C3(C(C#N)=C(N)OC4=C3C(=O)CC(C)(C)C4)c3cccc1c32 (stereo unspecified)	/	10	/	-1
COc1cccc(C2NC(=O)NC(C)=C2C(=O)Nc2ccccc2C)c1 (stereo unspecified)	/	-7	/	-4
O=C1c2ccccc2C(=O)N1C/C=C/CN1C(=O)c2ccccc2C1=O	/	-2	/	2
O=P(O)(CN1CCCCCC1)CN1CCCCCC1	/	-1	/	-5
Cc1ccc(C)n1CCN1CCN(CC(=O)Nc2cc(C(F)(F)F)ccc2Cl)CC1	/	-16	/	2
CC1(C)CC(=O)C(C=Nc2cccc(/N=C/C3=C(O)CC(C)(C)CC3=O)n2)=C(O)C1	/	-4	/	-8
NC(=O)c1sc2nc3c(c(-c4cccs4)c2c1N)CCCC3	/	1	/	18
CCc1nnc(NC(=O)CSc2nnc(-c3ccncc3)n2Cc2ccccc2)s1	/	2	/	4
CCc1c(C)c(C#N)c2nc3ccccc3n2c1Cl	/	30	/	5
COC(=O)c1cc(OC)c(OC)cc1NC(=O)c1ccoc1C	/	-21	/	15
COc1ccc(C[C@H]2CN3C(=NC[C@@H]3Cc3ccccc3)N2C[C@H](C)NC(=O)CCC2CCCCC2)cc1	/	21	/	33
CCOC(=O)c1cccc(NC(=O)Cn2c(CC(=O)N3CCCC3)nc3ccccc32)c1	/	2	/	-8
CCSc1nc2c(sc3nc(C)cc(C)c32)c(=O)[nH]1	/	0	/	55
CCCCCC(=O)Nc1cccc(C2=NOC3(C2)C[C@H](C(N)=O)N(C(=O)CC#N)C3)c1 (stereo partly specified)	/	-4	/	-3
CC(=O)c1ccc(-c2ccccc2[C@H]2[C@H]3C=CC[C@@H](C)[C@@H]3C(=O)N2Cc2ccccc2)cc1	/	21	/	-17
COc1cc(-c2nn3c(-c4ccccn4)nnc3s2)cc(OC)c1OC	/	-17	/	-2
CCc1cc2c(nc1CC)CCN(CC/C(C)=N/OC[C@H]1O[C@H](c3ccccc3)C=C[C@@H]1Oc1ccc(OC)cc1)C2	/	37	/	2
O=C(COc1ccc(Cl)cc1)Nc1ccccc1N1CCOCC1	/	4	/	2
COc1cc([C@@H]2c3cc4c(cc3[C@@H](NC3CCN(Cc5ccccc5)CC3)[C@H]3COC(=O)[C@H]23)OCO4)cc(OC)c1O	/	24	/	101*
COc1cccc(N2CCCn3c2nc2c3c(=O)n(CCN3CCOCC3)c(=O)n2C)c1	/	-21	/	-4
Nc1cccc(-n2nncc2-c2ccc(Cl)cc2)c1	/	-3	/	5

Grouped by structure: the compounds so far containing an aryl thioether with sulfur outside any ring (3)
SMILES	LANA-H2B inh	T cruzi repl	Bfl-1 A1 inh	Calb FLC
CCCCn1c(SCC(N)=O)nnc1-c1cc(OC)c(OC)c(OC)c1	/	-7	/	-4
CCc1nnc(NC(=O)CSc2nnc(-c3ccncc3)n2Cc2ccccc2)s1	/	2	/	4
CCSc1nc2c(sc3nc(C)cc(C)c32)c(=O)[nH]1	/	0	/	55

Another view of four compounds above:
> CC1(C)CC(=O)C(C=Nc2cccc(/N=C/C3=C(O)CC(C)(C)CC3=O)n2)=C(O)C1
  LANA-H2B inh: /	T cruzi repl: -4	Bfl-1 A1 inh: /	Calb FLC: -8
> NC(=O)c1sc2nc3c(c(-c4cccs4)c2c1N)CCCC3
  LANA-H2B inh: /	T cruzi repl: 1	Bfl-1 A1 inh: /	Calb FLC: 18
> CCc1nnc(NC(=O)CSc2nnc(-c3ccncc3)n2Cc2ccccc2)s1
  LANA-H2B inh: /	T cruzi repl: 2	Bfl-1 A1 inh: /	Calb FLC: 4
> CCc1c(C)c(C#N)c2nc3ccccc3n2c1Cl
  LANA-H2B inh: /	T cruzi repl: 30	Bfl-1 A1 inh: /	Calb FLC: 5

(more compounds)
SMILES	LANA-H2B inh	T cruzi repl	Bfl-1 A1 inh	Calb FLC
CCOC(=O)c1sc2nc(N3CCOCC3)c3c(c2c1N)CCN(C)C3	/	18	/	-2
Cc1nnc(C)c2c(C)n(-c3ccc(Br)cc3)c(C)c12	/	1	/	4
CCCCNC(=O)C(c1ccc(OCC(=O)OC)c(C(=O)OC)c1)N(CCc1c[nH]c2ccccc12)C(=O)CCCCCN1C(=O)NC(c2ccc(-c3ccccc3)cc2)C(C(=O)OCc2ccccc2)=C1C (stereo unspecified)	/	34	/	-8
CC1CCC(NC(=O)C2CCN(C(=O)NC3CCCCC3)CC2)CC1 (stereo unspecified)	/	-4	/	55
Cc1ccc(C2CC(C(F)(F)F)n3nc(C(=O)NCC4CCCO4)cc3N2)cc1 (stereo unspecified)	/	-15	/	5
CCOc1ccc(N2CCCn3c2nc2c3c(=O)n(CCc3ccccc3)c(=O)n2C)cc1	/	4	/	-5
O=C1CC(c2ccc(Cl)c(Cl)c2)CC(O)=C1C=NCCN1CCNCC1 (stereo unspecified)	/	-4	/	2
C#CCOCCOCCOCCNc1nc(N2CCN(C(=O)[C@H](CCC(=O)O)n3cc(C(N)Cc4ccc(O)cc4)nn3)CC2)nc(N2CCN(C(=O)[C@H](Cc3ccc(O)cc3)n3cc(C(N)CC(C)C)nn3)CC2)n1 (stereo partly specified)	/	-10	/	-9
COCCNS(=O)(=O)c1cc(OC)c(Cl)cc1Cl	/	-9	/	-5
O=C(CN1CCCCC1)N1CCN(C(=O)CN2CCCCC2)CC1	/	-12	/	-7
Clc1ccc(C2[C@H]3CN(Cc4ccc(-c5ccccc5)cc4)[C@H](c4ccccc4)C34CC2(c2cccnc2)C4)cn1 (stereo partly specified)	/	27	/	-21
COC(=O)c1ccc2c(c1)N(Cc1nc(-c3cccc(C)c3)oc1C)C(=O)C1CCCN21 (stereo unspecified)	/	1	/	9
CCC(=O)NNC(=O)CCC(=O)Nc1ccccc1	/	-7	/	2
CNC(=O)/C(=N\O)c1ccccc1	/	-8	/	-2
COc1ccc2[nH]cc(C(O)CN3CCN(c4ccccc4)CC3)c2c1 (stereo unspecified)	/	3	/	-2
COC(=O)c1ccc(C23CC4(C2)[C@H](CN(Cc2ccc(C(F)(F)F)cc2)[C@@H]4c2ccccc2)C3c2ccc(C(F)(F)F)cc2)cc1 (stereo partly specified)	/	7	/	-13
Cc1ccc(C)n1C(Cc1ccccc1)C(=O)O (stereo unspecified)	/	-4	/	-31
Cc1ccc(OCc2nnc(NC(=O)Cc3cccs3)s2)cc1	/	0	/	1
COc1ccc(/C(O)=C2/C(=O)C(=O)N(CCCN(C)C)C2c2ccc(C)o2)cc1Cl (stereo unspecified)	/	-5	/	-5
COC(=O)c1cc(OC)c(OC)cc1NC(=O)c1cnccn1	/	8	/	3
O=c1c2ccccc2nc2c3ccccc3c(Cl)nn12	/	-7	/	-22
C/C(CC(=O)Nc1cc(C)ccn1)=N\NC(=O)COc1cccc(C)c1	/	-17	/	8
O=S(=O)(c1cccc(-c2nn3c(-c4ccncc4)nnc3s2)c1)N1CCOCC1	/	-3	/	2
CN1CCc2c(sc(NC(=O)c3cc4cc([N+](=O)[O-])ccc4s3)c2C(N)=O)C1	/	69*	/	97*
O=C(Nc1nnc(-c2ccccc2)s1)c1ccc(Cl)c(S(=O)(=O)N2CCOCC2)c1	/	-6	/	-11
CCOC(=O)N1CCC(NC(=O)c2ccc3nc4ccccc4c(=O)n3c2)CC1	/	-2	/	?
COC(=O)C1=C(N)n2c(s/c(=C\c3cccnc3)c2=O)=C(C(=O)OC)C1c1cccnc1 (stereo unspecified)	/	-2	/	-2
CC1CCC(NC(=O)c2ccc(/C=C3\Oc4ccccc4N(C)C3=O)cc2)CC1 (stereo unspecified)	/	38	/	-30
CCCN(CCC)c1nc2c(C)cccn2c(=O)c1/C=C1/SC(=S)N(Cc2ccco2)C1=O	/	68*	/	7
C/C=C(\C)C(=O)N1CC2(CC(c3cccc(NC(=O)CC(c4ccccc4)c4ccccc4)c3)=NO2)C[C@H]1C(N)=O (stereo partly specified)	/	26	/	12
CCOC(=O)C1CCCN(c2ncnc3c2[nH]c2cccc(OC)c23)C1 (stereo unspecified)	/	9	/	-16
CC(C)(C)NC(=O)C(c1ccco1)N(C(=O)Cn1nnc(-c2ccc(F)cc2)n1)c1ccccc1 (stereo unspecified)	1.4	/	-0.2	/
CCOC(=O)C(NC(=O)CCC(=O)Nc1ccc(S(N)(=O)=O)cc1)C(O)c1ccccc1 (stereo unspecified)	-15	-26	/	-3
